# MT1-MMP act inh = blocks activation of human MT1-MMP. P50281. HT1080 RFP-PRO-GFP cells, GFP/RFP ratio fluorescence, overnight; percent of plate control window, DMSO zero. GFP/RFP ratio change, % at 20 µM. hit rate 0.061% among 360,000. AID 651647;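 active = GFP/RFP ratio change of at least 30% with cell ATP level not reduced by more than half and red fluorescence within 50% of control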; also: strong numbers were not always called active
#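 system = RFP-PRO-GFP reporter HT1080 cells | dosing = 20 µM single dose, 1% DMSO | timing = overnight cell settling, then overnight compound exposure, 37 °C, 5% CO2 | read-out basis = GFP/RFP fluorescence ratio | controls = DMSO and RFP-L50D-GFP cell wells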
# Rce1 inh = yeast Ras-converting enzyme inhibition; Q03530; yeast membranes, quenched prenylated peptide cleavage fluorescence; calls only; hit rate 0.27% among 290,000;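 active = fall in fluorescence gain of 50% or more versus controls, with final raw signal at or below 3038400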;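 also: plate controls were neutral control wells for no effect and wells lacking membranes for full effect; tested at 10 µM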
# Target sequence (Q03530 whole entry, looked up): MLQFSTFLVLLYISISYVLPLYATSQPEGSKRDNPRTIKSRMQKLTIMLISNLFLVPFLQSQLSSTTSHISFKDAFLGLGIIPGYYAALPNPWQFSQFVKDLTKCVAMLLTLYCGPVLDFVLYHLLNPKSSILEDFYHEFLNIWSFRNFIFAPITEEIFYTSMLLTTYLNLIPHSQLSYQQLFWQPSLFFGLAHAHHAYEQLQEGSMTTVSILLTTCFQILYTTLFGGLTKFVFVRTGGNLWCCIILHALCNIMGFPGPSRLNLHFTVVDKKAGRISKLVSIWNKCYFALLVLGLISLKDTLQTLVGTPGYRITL
# CSC inhib = cancer stem cell inhibition | cancer stem cell-like cells viability, luminescence | inhibition, % at 7.5 µM | hit rate 1.1% among 300,000 | AID 2717;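 active = mean at 75% or more and at least half the replicates too; tested in HMLE shEcad cells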;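 also: 0% = median of negative and 100% = median of positive control wells; the first replicate is given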
# Env fusion inh = inhibitors of HIV Env-mediated cell fusion; HeLa-JRFL Env/CEM21 cell fusion, luciferase; hit rate 1.1% among 360,000; inhibition, % at 12.3 µM;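 active = mean replicate inhibition score of at least 50 and every replicate individually at or above 50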;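 also: 0% = plate neutral controls and 100% = maraviroc near 300 nM; one replicate is shown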
# eIF4H FP inh = inhibitors of RNA binding by human eIF4H | inhibition, % at 35 µM | eIF4H fluorescence polarization binding assay | Q15056 | hit rate 0.94% among 290,000;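 active = 50% or more with normal probe brightness, or confirmed in later tests; about a fifth of its hits are not listed in these tables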;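 also: calls also rest on retests at 20 µM and on dose response follow-up; 0% = protein and probe with vehicle and 100% = probe without protein; strong numbers were not always called active; many hits fall short of the cut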
# PABP polyA inh = blocks human PABP binding to poly(A) RNA | inhibition, % at 35 µM | hit rate 1% among 290,000 | P11940 | fluorescence polarization | AID 2014;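 active = 50% or more with normal probe brightness, or confirmed in later tests; about a fifth of its hits are not listed in these tables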;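 also: calls also rest on retests at 20 µM and on dose response follow-up; controls were probe without protein and protein plus probe with vehicle; some compounds called inactive have numbers as strong as hits; many hits fall short of the cut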
# UUG fidelity = alters start codon recognition fidelity in yeast; S. cerevisiae UUG-firefly luciferase reporter, luminescence/redox ratio; activity score, % at 18.7 µM; hit rate 0.13% among 350,000;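 active = replicate mean at a twofold rise or more, about +100% in these data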;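 also: firefly luciferase made from a UUG start codon reports start codon fidelity; reporter light over untreated wells divided by growth signal over untreated wells; some hits fall short of that in this replicate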
# MT1-MMP act inh RFP = further read-out of MT1-MMP act inh, marked with its call; RFP signal change, %; measured here: RFP expression control read;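 0 = vehicle wells; hits needed this value within 50% of zero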
# * hit, by the source's call; i = inactive; . = not tested or not shown; & = joins results of further samples; [ ] = dose if it differs, or a comment. The order is random. Share with any hit: about 2.9%.
SMILES,MT1-MMP act inh,MT1-MMP act inh RFP,Rce1 inh,CSC inhib,Env fusion inh,eIF4H FP inh,PABP polyA inh,UUG fidelity
Cc1ccc(C=C2SC(=S)N(CCCC(=O)Nc3cccc(C(=O)O)c3)C2=O)cc1,0,-2,.,.,6,.,.,-18
CC1CN(CC(O)COC(c2ccc(Cl)cc2)c2ccc(Cl)cc2)CC(C)O1 (stereo not given),-5,-8,i,26,5,-3,-1,.
O=C(O)COc1ccc(/C=C/C(=O)c2ccc3ccccc3c2)cc1,-2,-9,i,15,.,-1,-1,-17
Cc1ccc(S(=O)(=O)NC2CCOC(C)(C)C2)cc1 (stereo not given),-1,1,i,-4,.,10,-6,3
Cc1ccc(OCc2n[nH]c(=S)n2-c2ccc(Cl)cc2)cc1,2,-2,i,-2,-16,-5,4,-16
Cc1ccc(NS(=O)(=O)c2ccc(C(=O)NCC(c3ccco3)N3CCCCC3)cc2)cc1 (stereo not given),-2,-5,i,33,1,.,.,.
COc1cccc(CNn2cnnc2)c1OCc1ccccc1F,-3,8,i,-9,-30,-13,-4,-29
CCCCNc1nc(-c2ccccc2)nc(-n2ccnc2)n1,4,1,i,5,-85,8,3,-17
CCn1ncc(CNC(=O)CCCSc2nc(-c3ccco3)cc(C(F)(F)F)n2)c1C,-9,-7,i,-10,.,5,6,.
N#Cc1ccsc1NC(=O)CCc1ccccc1,-4,0,i,63,-32,12,22,.
NC(=O)C1CCN(C(=O)c2cc(S(=O)(=O)N3CCOCC3)ccc2Cl)CC1,-1,-1,i,-19,-13,5,12,-4
O=C(CNC(=O)N1CC(=O)Nc2ccccc21)Nc1cccc(F)c1,0,3,i,-13,6,-7,0,-14
COCc1cc(C)nc2oc(C(=O)c3ccccc3)c(N)c12,0,-1,i,-13,-5,2,13,.
Cc1ccc(N(CC(=O)NCc2ccco2)S(=O)(=O)c2ccccc2)cc1,-3,-3,i,-12,-45,4,7,0
O=C(N1CCCC1)C12CC3CC(CC(C3)C1)C2,2,3,i,-10,.,-8,-8,-8
c1csc(-c2noc(CN3CCOCC3)n2)c1,2,4,.,19,-2,-4,2,.
CCc1cccc(NC(=O)C2CCCN2S(=O)(=O)c2ccc3c(c2)n(C)c(=O)c(=O)n3C)c1 (stereo not given),-1,-1,i,-14,-5,3,-7,11
COc1ccc(NC(=O)COC(=O)CCC2CCCCC2)cc1,1,0,.,-11,8,.,.,-8
O=C(C1=C[C@@H](C2CC2)C[C@@H](OCc2ccc(CO)cc2)O1)N1CCOCC1,5,0,i,-14,16[16.7 µM],8,5,-2&-10
O=C(O)CCCCCn1c(SCC(=O)c2ccc(O)c(O)c2)nc2ccsc2c1=O,1,4,i,15,.,30,-7,.
CCCCc1c(C)c(C#N)c2nc3ccccc3n2c1NCCN(C)C,-7,-4,i,.,-4,-9,-10,-16
O=C(CN1C(=O)C2CC=CCC2C1=O)Nc1nc2ccccc2s1 (stereo not given),5,1,i,-5,5,-5,31,-3
CCC1=C(OC(=O)N(CC)CC)N2C(=O)OC(=NCC3CC3)[C@]2(C)[C@H]2C1=CC[C@H]1C(=O)N(CC(=O)OC)C(=O)[C@H]12,-2,-3,.,-4,-15,0,-2,-17
COc1ccc(C(=O)c2oc3nc(C)cc(C)c3c2N)cc1,0,0,i,-17,-15,8,11,-26
Cc1ccc(S(=O)(=O)Nc2ccccc2CNc2c(C)n(C)n(-c3ccccc3)c2=O)cc1,6,-1,i,-6,.,-12,-10,.
COC(=O)c1c(C)[nH]c(C(=O)NCc2ccco2)c1C,-1,2,i,-13,-15,4,5,-17
O=C(CN1C(=O)NC(Cc2c[nH]c3ccccc23)C1=O)NCC(F)(F)F (stereo not given),3,4,i,-8,4,-4,2,-26
COc1ccc(CC(=O)OC(C)C(=O)NCc2ccc3c(c2)OCO3)cc1OC (stereo not given),-2,0,i,-3,-7,.,.,-23
Cc1cccnc1NC(=O)c1cc2ccccc2oc1=O,-4,-2,i,.,-30,-10,3,-10
CCOC(=O)c1nc(NCc2ccccc2C)c2ccccc2n1,2,0,i,-14,18,-4,22,.

# Brought forward from above: 2 compounds, followed by the next part.
SMILES,MT1-MMP act inh,MT1-MMP act inh RFP,Rce1 inh,CSC inhib,Env fusion inh,eIF4H FP inh,PABP polyA inh,UUG fidelity
Cc1cccnc1NC(=O)c1cc2ccccc2oc1=O,-4,-2,i,.,-30,-10,3,-10
CCOC(=O)c1nc(NCc2ccccc2C)c2ccccc2n1,2,0,i,-14,18,-4,22,.
CSc1ccccc1OCc1cc(C(=O)NCc2cnc(C)cn2)no1,0,0,i,-10,-2,0,-1,-17
COc1ccc(OC)c(NC(=O)C(CC(=O)O)Cc2ccc(Cl)cc2)c1 (stereo not given),-1,1,i,-4,.,-1,7,3
O=C(COC(=O)/C=C/c1cccc([N+](=O)[O-])c1)Nc1ccc(Cl)cn1,2,-1,.,.,1,.,.,-10
COc1ccc(C(=O)CSc2nnc(-c3cccnc3)n2Cc2ccco2)cc1,-1,0,i,-7,15,-26,3,-13
Cc1cccc(-c2nc3c(c(=O)c4ccccc4n3C)c(=O)n2-c2ccccc2)c1,-5,-9,i,-8,-22,6,12,.
Cc1cccc(N2C(=O)CSC23CCCCC3)c1,-1,0,i,-4,-17,4,3,.
Cc1ccc(S(=O)(=O)N2CCOC2CNC(=O)C(=O)NCC(C)C)cc1 (stereo not given),1,-4,i,2,-48,-8,7,7
CCOC(=O)c1ncn2c1[C@@H]1CCNC1C(=O)c1cc(OC)ccc1-2 (stereo not given in full),-2,3,.,4,9,.,.,-5
CCOc1ccc2nc(NC(=O)CN3C(=O)C4CCCCC4C3=O)sc2c1 (stereo not given),1,4,i,-1,-31,.,.,7
CCCCCCC(=O)N/N=C/c1ccco1,1,2,i,-12,-10,-1,0,.
CCOc1ccc(CN(CCO)CCO)cc1[N+](=O)[O-],-1,2,i,.,.,-13,-7,-2
O=C(Nc1ccc(-c2nc3ncccc3o2)cc1)c1ccco1,1,-5,i,4,-118,39,10,.
Cc1ccc(NC(=O)CN(C)C(=O)c2cccc(S(=O)(=O)N3CCc4ccccc43)c2)cc1,2,-2,.,4,.,.,.,-2
N#C/C(=C/c1ccc(O)cc1)C(=O)NCc1ccc(Cl)cc1,6,6,i,-8,-3,-2,-14,-11
O=C(CS(=O)(=O)c1cccc(C(F)(F)F)c1)Nc1ccccc1Cl,-2,0,i,-16,-67,2,0,-8

# An excerpt of these results, bar-delimited:
Molecule | MT1-MMP act inh | MT1-MMP act inh RFP | Rce1 inh | CSC inhib | Env fusion inh | eIF4H FP inh | PABP polyA inh | UUG fidelity
COc1ccc(CC(=O)OC(C)C(=O)NCc2ccc3c(c2)OCO3)cc1OC (stereo not given) | -2 | 0 | i | -3 | -7 | . | . | -23
Cc1cccnc1NC(=O)c1cc2ccccc2oc1=O | -4 | -2 | i | . | -30 | -10 | 3 | -10
CCOC(=O)c1nc(NCc2ccccc2C)c2ccccc2n1 | 2 | 0 | i | -14 | 18 | -4 | 22 | .
CSc1ccccc1OCc1cc(C(=O)NCc2cnc(C)cn2)no1 | 0 | 0 | i | -10 | -2 | 0 | -1 | -17
COc1ccc(OC)c(NC(=O)C(CC(=O)O)Cc2ccc(Cl)cc2)c1 (stereo not given) | -1 | 1 | i | -4 | . | -1 | 7 | 3
O=C(COC(=O)/C=C/c1cccc([N+](=O)[O-])c1)Nc1ccc(Cl)cn1 | 2 | -1 | . | . | 1 | . | . | -10
COc1ccc(C(=O)CSc2nnc(-c3cccnc3)n2Cc2ccco2)cc1 | -1 | 0 | i | -7 | 15 | -26 | 3 | -13
Cc1cccc(-c2nc3c(c(=O)c4ccccc4n3C)c(=O)n2-c2ccccc2)c1 | -5 | -9 | i | -8 | -22 | 6 | 12 | .
Cc1cccc(N2C(=O)CSC23CCCCC3)c1 | -1 | 0 | i | -4 | -17 | 4 | 3 | .
Cc1ccc(S(=O)(=O)N2CCOC2CNC(=O)C(=O)NCC(C)C)cc1 (stereo not given) | 1 | -4 | i | 2 | -48 | -8 | 7 | 7
CCOC(=O)c1ncn2c1[C@@H]1CCNC1C(=O)c1cc(OC)ccc1-2 (stereo not given in full) | -2 | 3 | . | 4 | 9 | . | . | -5
CCOc1ccc2nc(NC(=O)CN3C(=O)C4CCCCC4C3=O)sc2c1 (stereo not given) | 1 | 4 | i | -1 | -31 | . | . | 7
CCCCCCC(=O)N/N=C/c1ccco1 | 1 | 2 | i | -12 | -10 | -1 | 0 | .
CCOc1ccc(CN(CCO)CCO)cc1[N+](=O)[O-] | -1 | 2 | i | . | . | -13 | -7 | -2
O=C(Nc1ccc(-c2nc3ncccc3o2)cc1)c1ccco1 | 1 | -5 | i | 4 | -118 | 39 | 10 | .
Cc1ccc(NC(=O)CN(C)C(=O)c2cccc(S(=O)(=O)N3CCc4ccccc43)c2)cc1 | 2 | -2 | . | 4 | . | . | . | -2
N#C/C(=C/c1ccc(O)cc1)C(=O)NCc1ccc(Cl)cc1 | 6 | 6 | i | -8 | -3 | -2 | -14 | -11

# Following part.
SMILES,MT1-MMP act inh,MT1-MMP act inh RFP,Rce1 inh,CSC inhib,Env fusion inh,eIF4H FP inh,PABP polyA inh,UUG fidelity
CCN1CCN(C(=O)C2CC(=O)N(c3ccc(Cl)cc3)C2)CC1 (stereo not given),-1,0,.,-11,9,5,-6,-15
CCOC(=O)C1=CCN(S(=O)(=O)c2ccccc2F)C1c1ccc(F)cc1 (stereo not given),3,4,.,.,14,.,.,-7
CCOc1ccc(N2CC(C(=O)Nc3cc(Cl)ccc3-n3cncn3)CC2=O)cc1 (stereo not given),8,2,i,-13,-1,.,.,.
CC(C)N1CCN(Cc2ccoc2)CC1CCO (stereo not given),-5,-1,i,0,3,2,7,-14
COc1ccc2cc3cc(C(=O)NCCc4ccc(OC)c(OC)c4)oc3nc2c1,5,-4,i,30,68*,4,-1,-9
CC(C)(O)c1cc2ccccc2c(=O)o1,1,4,.,.,13,.,.,-14
COc1ccc(Br)c(OC)c1C(=O)NC(=O)Nc1c(F)cccc1F,2,-1,i,-17,17,-19,2,23
COc1ccc(-c2noc(CN3CCCCC3)n2)cc1OC,1,0,i,-9,-7,5,1,.
COc1ccc(C2CC(c3ccc(Br)cc3)=NN2C(=O)CCC(=O)O)cc1OC (stereo not given),1,3,i,-7,3,-4,-5,0
CCOC(=O)Cc1csc(NC(NC(=O)CC)(C(F)(F)F)C(F)(F)F)n1,-1,2,i,3,.,11,-4,-5
CC(CCc1ccccc1)NC(=O)C1CCN(S(=O)(=O)N2CCOCC2)CC1 (stereo not given),4,4,i,-15,-16,-4,45,-6
COC1CCCCC1Nc1cccc(SC)c1 (stereo not given),-2,-1,i,9,13,-10,18,-15
CC(C)NC(=O)NC(=O)COC(=O)c1cc(S(=O)(=O)N2CCCCC2)ccc1N1CCOCC1,-2,-3,i,-3,-12,-2,-5,12
O=C(C(=O)N1CCCc2ccccc21)c1c[nH]c2ccccc12,5,4,i,0,.,-11,13,-5
CN(CCCCCCCCCCN(C)C(=O)Oc1cccc([N+](C)(C)C)c1)C(=O)Oc1cccc([N+](C)(C)C)c1,-4,-1,.,.,-7,.,.,13
Cc1cccc(C(=O)NC(NCc2ccco2)C(Cl)(Cl)Cl)c1 (stereo not given),-1,-7,i,-1,.,-5,0,23
